Bioassay records (PubChem BioAssay)
2A StopGo: lowers the luciferase signal of an FMDV 2A StopGo reporter; 410,000 compounds, 1.2% hits; human cells with a luciferase reporter of 2A StopGo recoding; control for the full effect not named in the record; Potency, µM (top dose mostly 57.9 µM), for the others: top-dose signal change, negative = less light; active = well fitted falling curve with a large enough effect; inconclusive = small, poorly fitted or top-dose-only effect; inactive = no such curve, though single readings can be large or run the other way; tested in HEK293T cells; note: % is set by controls: 0 for no effect and ±100 for the full control effect; nearly all actives have a fitted effect of over 45% in size; luciferase light after 4 h
SARS PLpro yeast: inhibitors of SARS-CoV papain-like protease in yeast; Potency, µM (titrated, usually from 32.9 µM), for the others: at the top dose activity, positive = growth rescue; 330,000 compounds, 0.19% hits; S. cerevisiae expressing SARS-CoV PLpro, growth rescue; control for the full effect not named in the record; note: 0% is about no effect; nearly all actives have a fitted effect of over 55% in size; growth read by luminescence after 48 h
Cruzain inh noDet: cruzain (T. cruzi) inhibition without detergent; purified cruzain, Z-FR-AMC fluorescence, no detergent; Potency, µM, for the others: max response, negative = inhibition, usual class: inhibitors; AID 1476; P25779; 200,000 compounds, 2.3% hits; active = well fitted curve in the direction sought with a large enough effect; inconclusive = small, poorly fitted or top-dose-only effect, or another doubt; inactive = no such curve, though single readings can be large; an effect the other way counts as inactive or inconclusive;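 note: plate controls were enzyme without inhibitor for no effect and buffer without enzyme for full effect; nearly all actives have a fitted effect of over 40% in size; top concentration of the series not given in the record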
Target sequence (P25779 123-467 limits assumed): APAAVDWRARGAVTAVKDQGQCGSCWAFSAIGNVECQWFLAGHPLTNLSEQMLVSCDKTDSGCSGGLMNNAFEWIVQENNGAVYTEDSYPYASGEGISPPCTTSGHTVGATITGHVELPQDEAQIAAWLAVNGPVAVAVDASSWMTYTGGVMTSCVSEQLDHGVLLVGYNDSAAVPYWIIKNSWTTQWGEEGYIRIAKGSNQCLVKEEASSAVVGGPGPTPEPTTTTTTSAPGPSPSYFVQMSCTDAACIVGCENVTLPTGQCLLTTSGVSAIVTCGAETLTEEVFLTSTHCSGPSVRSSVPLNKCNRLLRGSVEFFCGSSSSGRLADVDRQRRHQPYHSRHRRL
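Purified cruzain at 1.5 nM, pre-incubated 15 min with compound at room temperature in 100 mM sodium acetate pH 5.5, 5 mM DTT, 0.00005% Triton X-100. Reaction started with 2 uM Z-FR-AMC; AMC fluorescence increase over 60 s gives rate.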
MARV entry inh: Marburg virus entry inhibition. 300,000 compounds, 1.8% hits. Marburg virus pseudotyped entry inhibition, cell reporter; control for the full effect not named in the record; about a third of the inactives were read at about 46 µM. Potency, µM (titrated, usually from 37.8 µM), for inactives: at the top dose activity change, negative = inhibition, hits mostly inhibitors. AID 540276; active = well fitted inhibition curve with a large enough effect; inconclusive = small, poorly fitted or top-dose-only effect, or effect the other way; inactive = flat fitted curve, though single readings scatter; tested in HEK293 cells; about a fifth of its hits are not listed in these tables; note: % is set by controls: 0 for no effect and ±100 for the full control effect; luciferase read-out
NS1 inh: inhibitors of influenza NS1 protein function | S. cerevisiae slowed by influenza A NS1, growth recovery by OD600 | Potency, µM (series often up to 46.1 µM), inactives show at the top dose activity, positive = more growth | 270,000 compounds, 0.4% hits; note: actives are rising curves; nearly all actives have a fitted effect of over 50% in size
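Recovery from NS1-induced slow growth read by OD600 in budding yeast switched to galactose assay medium (pH 6.0, -URA) at 1:100 dilution. Compound 23 nl per well; the matching strain lacking NS1 serves as control.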
LASV entry inh: blocks Lassa virus binding to or entry into cells. Lassa virus pseudotype entry inhibition, cell reporter; control for the full effect not named in the record. Potency, µM (doses to about 37.9 µM), without a hit: top-dose activity change, negative = inhibition, hits mostly inhibitors. 300,000 compounds, 1.2% hits; active means well fitted inhibition curve with a large enough effect; inconclusive means small, poorly fitted or top-dose-only effect, or effect the other way; inactive means flat fitted curve, though single readings scatter; tested in HEK293 cells; note: % is set by controls: 0 for no effect and ±100 for the full control effect; nearly all actives have a fitted effect of over 50% in size; luciferase read-out
RE007 growth inh: less growth of the S. pombe RE007 Vpr strain; S. pombe RE007 Vpr strain, BacTiter-Glo ATP luminescence, 24 h; control for the full effect not named in the record; 360,000 compounds, 0.21% hits; Potency, µM (series often up to 92.2 µM), for inactives: at the highest dose activity change, negative = less growth; active = well fitted falling curve with a large enough effect; inconclusive = small, poorly fitted or top-dose-only effect; inactive = no such curve, though single readings can be large or run the other way;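 note: % is set by controls: 0 for no effect and ±100 for the full control effect; nearly all actives have a fitted effect of over 50% in size; the assay follows cell death caused by Vpr and the record does not say whether a fall means rescue or toxicity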
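Fission yeast strain RE007, carrying one chromosomally integrated HIV-1 vpr copy, was seeded at OD 0.01 in PMG+AL medium with 23 nL pinned compound. After 24 h at 30 °C and 99% humidity, viability was read by BacTiter-Glo luminescence.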
Cruzain inh Det: blocks cruzain activity in presence of Triton detergent | purified cruzain, Z-FR-AMC fluorescence, 0.01% Triton | P25779 | Potency, µM, without a hit: max response, negative = inhibition, hits mostly inhibitors | 200,000 compounds, 0.43% hits | AID 1478; active = well fitted curve in the direction sought with a large enough effect; inconclusive = small, poorly fitted or top-dose-only effect, or another doubt; inactive = no such curve, though single readings can be large; an effect the other way counts as inactive or inconclusive;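 note: plate controls were neutral wells for no effect and buffer without enzyme for full effect; nearly all actives have a fitted effect of over 40% in size; top concentration of the series not given in the record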
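Enzyme 1.5 nM, Z-FR-AMC 2 uM, NaOAc 100 mM pH 5.5, DTT 5 mM, Triton X-100 0.01%; 15 min RT compound preincubation; kinetic ex360/em450, 60 s delta.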
* marks the source's active call; other numbers are inactive results; ? = inconclusive; . = not tested or not shown; & = joins results of further samples; [ ] = remark or other dose. Unless noted, calls come from the whole dose curve; as a rule, active means well fitted rising curve with a large enough effect; inconclusive means small, poorly fitted or top-dose-only effect; inactive means no such curve, though single readings can be large or run the other way. Potency is the fitted concentration of half-maximal effect.

SMILES	2A StopGo	SARS PLpro yeast	Cruzain inh noDet	MARV entry inh	NS1 inh	LASV entry inh	RE007 growth inh	Cruzain inh Det
CN(C(=O)CSc1nnc(Nc2ccccc2)s1)C1CCS(=O)(=O)C1 (stereo not given)	6%	-3%	.	12%[46.1 µM]	.	12%	-1%	.
CCC(=O)NCC(c1ccc2c(c1)OCO2)N1CCN(c2ccccc2)CC1 (stereo not given)	-15%	.	2%	.	.	-11%[46.1 µM]	.	-1.8%
CC(=O)Nc1ccc(NC=C(C#N)C#N)cc1	0%	-2%	.	5%[46.1 µM]	1%	-3%	23%	.
CC(=O)/C(=N\Nc1ccccc1Cl)Sc1nnc(-c2ccccc2)n1-c1ccccc1	-18%	-5%	26%	-25%	2%	-15%	33%	-2.3%
COc1cc(CC(=O)OCC(=O)Nc2ncc(Cl)cc2Cl)cc(OC)c1OC	-11%	0%	2%	2%	3%	6%	4%	-0.5%
CC(C)Oc1ccc(C(=O)N2CC(=O)Nc3ccc(F)cc3C2c2ccc(F)cc2)cc1 (stereo not given)	-5%	.	-5%	-4%[46.1 µM]	.	?	.	-6.0%
Clc1ccc(CSc2nnc(-c3c[nH]c4ccccc34)o2)cc1	.	-3%	-2%	14%	-8%	-2%	-9%	-13%
CCCCc1ccc(NC(=S)N2CCN(c3ncccn3)CC2)cc1	6%	-1%	.	-24%[46.1 µM]	1%	?	-8%	.
O=C(N/C(=C\c1cccc([N+](=O)[O-])c1)C(=O)N1CCOCC1)c1ccco1	9%	2%	.	-12%[46.1 µM]	2%	6%	9%	.
CC(C)c1cc(C(N)=O)c(NC(=O)c2cccc(COc3ccc(Br)cc3)c2)s1	-16%	-16%	5µM*	-30%	-4%	?	1%	-3.4%
COc1ccc(CCNC(=O)Cc2ccc(NC(=O)N3CCSc4ncccc43)cc2)cc1OC	-4%	.	-3%	.	.	4%[46.1 µM]	.	-8.3%
Cc1ccccc1NC(=S)N(CCCN1CCOCC1)Cc1cccs1	-9%	-14%	1%	19%	2%	-10%	3%	1.3%
CC1OC(Oc2c(-c3cc(O)c(O)c(O)c3)oc3cc(O)cc(O)c3c2=O)C(O)C(O)C1O (stereo not given)	-18%	0%	.	.	1%	.	-2%	.
O=C(OCC12CC3CC(CC(C3)C1)C2)c1ccc(NCc2cc(O)ccc2O)cc1	18µM*	.	.	?	.	4.5µM*	-20%	.
O=S(=O)(NCc1cccnc1)c1cccc2cccnc12	69%[activator]	4%	3%	11%	13%	5%	3%	1.7%
O=[N+]([O-])c1ncn(Cc2c(Cl)cccc2Cl)n1	-15%	8%	0%	-33%	1%	?	0%	-4.4%
CC(=O)Nc1cccc(N(C)S(C)(=O)=O)c1	24%	1%	-1%	28%	1%	2%	6%	1.7%
O=C(O)CC1(CC(=O)NCc2cccc(Cl)c2)CCCCC1	-10%	3%	.	15%[46.1 µM]	-7%	21%[46.1 µM]	-2%	.
Nc1nc(SCC(=O)NCCCO)nc2sc3c(c12)CCC3	9%	0%	0%	11%	4%	1%	-10%	1.7%
Cc1ccccc1OCC(=O)Nc1ccc2c(c1)OCCO2	39%[activator]	-4%	.	.	-6%	.	-15%	.
COc1ccccc1C(=O)ON=C1c2ccccc2-c2ccccc21	19%	-8%	?	?	-18%	?	-9%	-7.4%
O=C(Cn1nc(Cc2cccnc2)c2ccccc2c1=O)N1CCN(c2ccccn2)CC1	-6%	-1%	-6%	-4%	-2%	.	-13%	-24%
COc1ccc(CCN(C)C(=O)CN2C(=O)NC3(CCCc4ccccc43)C2=O)cc1OC (stereo not given)	-2%	8%	.	16%	.	?	-12%	.
C=Cn1c(P(=S)(N2CCOCC2)N2CCOCC2)cc2c1CCCC2	.	-5%	?	-20%	0%	-29%	7%	-7.6%
COc1ccc(Nc2cc(C(=O)NCCCN3CCOCC3)c3ccccc3n2)cc1OC	0%	4%	-5%	1%	-4%	?	-14%	-7.8%
The list goes on:
SMILES	2A StopGo	SARS PLpro yeast	Cruzain inh noDet	MARV entry inh	NS1 inh	LASV entry inh	RE007 growth inh	Cruzain inh Det
COc1ccc(CCNC(=O)Cn2ncc3c(C)n(Cc4ccccc4F)c(C)c3c2=O)cc1OC	-13%	.	28%	?	.	-1%[46.1 µM]	.	-1.4%
C=CCn1c2ccccc2c2n[nH]c(=S)nc21	-4%	-1%	.	.	20%	.	16%	.
CCCCCn1c(-c2ccco2)nc2nc3ccccc3nc21	-38%	-18%	3%	11µM*	-81%	-18%	0%	?
COc1ccc2nc3c(c(-c4ccccc4)c2c1)CCC3	3%	10%	-5%&-2%	-10%	-20%	0%	-7%	-5.2%&-10%
CC1CCCN(c2c([N+](=O)[O-])c(=O)oc3ccccc23)C1 (stereo not given)	-3%	2%	-15%	-6%	10%	?	-3%	-2.7%
O=c1[nH]ncc(N2CCCCC2)c1Cl	-5%	-3%	-2%	14%	1%	-1%	-4%	-2.6%
COc1ccc(CNC(=O)C2CCCN2S(=O)(=O)c2ccc(Cl)cc2)cc1 (stereo not given)	.	-1%	-2%	?	-6%	4%	14%	1.0%
Cc1cc(C)c(S(=O)(=O)N2CCN(c3ccc([N+](=O)[O-])c(-n4nc(C)cc4C)c3)CC2)c(C)c1	?	-5%	20µM*	?	9%	-15%	-15%	-1.4%
CC(C)[C@@H]1CC[C@@H](C)C[C@H]1OC(=O)C[n+]1cc(-c2ccc(Cl)cc2)n2c1CCCCC2	?	-1%	.	?	-8%	?	8%	.
CC(Cc1cccs1)NC(=O)Nc1ccccc1 (stereo not given)	39%[activator]	5%	2%	20%	-11%	9%	0%	0.8%
COc1ccc(CCNC(=O)CCn2c(SCC#N)nc3ccccc3c2=O)cc1OC	8%	3%	0%	?	0%	-30%	-5%[3.69 µM]	-0.5%
CNC(=O)OCCc1n(C)cc[n+]1C	5%	-16%	13%	0%	11%	-1%	6%	-1.3%
CCCCCc1cc(=O)oc2c(C(CCN3CCCCC3)c3cc(OC)c(OC)c(OC)c3)c(OC)cc(OC)c12 (stereo not given)	?	0%	.	.	2%	.	-4%	.
Cc1cccc(-c2nc3c(c(SCC(N)=O)n2)CCCC3)c1	10%	-3%	12%	6%	-3%	2%	-3%	-3.3%
COc1ccc(NC(=O)C2CCN(S(=O)(=O)c3c(C)noc3/C=C/c3cccs3)CC2)cc1Cl	-11%	.	10µM*	2%[46.1 µM]	.	-1%[46.1 µM]	.	-3.5%
Cc1ccc(C(C(=O)NC(C)(C)C)N(Cc2ccco2)C(=O)Cn2nnc(-c3cccs3)n2)cc1 (stereo not given)	-22%	-20%	15%	11%	0%	-2%	20%	-6.3%
CC(C)NC(=O)Cn1c(SCC(=O)NC2CCCC2)nc2ccccc21	-6%	-1%	.	-2%[46.1 µM]	2%	5%	-2%	.
COc1ccc(-c2noc(CSc3nnc(Cc4ccccc4)n3-c3ccccc3)n2)cc1OC	-9%	.	8%	-22%[46.1 µM]	.	6.3µM*	.	-1.7%
C=CCNC(=O)N1CCCC(C(=O)c2cccc(Cl)c2)C1 (stereo not given)	-2%	-1%	.	-4%[46.1 µM]	-1%	?	-1%	.
Cc1cc(Br)ccc1NC(=S)NCCc1ccccc1	22%	-16%	.	-25%[46.1 µM]	-97%	?	-3%	.
CCOCCCNC(=O)c1ccc2c(c1)ncn2-c1cccc(C)c1	-12%	7%	.	?	5%	?	-3%	.
CCOC(=O)c1c(C)c(C(=O)O)n(C)c1C	-11%	6%	9%	12%	9%	9%	-2%	8.4%
Cc1cccc(OC(=O)n2c(=S)oc3cc(Cl)ccc32)c1	1%	-105%	-4%	3%	-25%	2%	.	-3.5%
CC(C)c1cc(N=O)cc(C(C)C)c1O	-19%	.	.	-7%	.	0%	-20%	.
CC(C)c1ccc(Cc2cn3cc(-c4cc5ccccc5oc4=O)nc3s2)cc1	31%[activator]	.	-1%	?	.	0%[46.1 µM]	.	1.2%
(more compounds)
SMILES	2A StopGo	SARS PLpro yeast	Cruzain inh noDet	MARV entry inh	NS1 inh	LASV entry inh	RE007 growth inh	Cruzain inh Det
CCCCc1nc2ccccc2c(=O)n1-c1ccccc1[N+](=O)[O-]	-24%	-4%	-6%	-13%	5%	0%	8%	1.8%
CC(=O)Nc1nc(-c2cc([N+](=O)[O-])cs2)cs1	-6%	0%	.	11%	17%	11%	-4%	.
N#Cc1ccccc1NC(=O)CNc1cc(S(=O)(=O)N2CCOCC2)ccc1NCC1CCCO1 (stereo not given)	-1%	-2%	.	18%	.	6%	0%	.
Cc1ccc(C(=O)COC(=O)c2cn(-c3ccccc3)nc2-c2ccccc2)cc1[N+](=O)[O-]	-5%	18%	?	-7%	19%	-10%	-5%	1.1%
COc1ccc(CNC(=O)C2CC(c3ccc(OC)cc3)=NO2)cc1 (stereo not given)	-11%	-5%	-17%	-6%	-27%	-17%[14.3 µM]	-2%	-1.9%
COc1cccc(OC)c1NC(=O)C1CCCN1C(=O)Nc1cccc(Cl)c1 (stereo not given)	-6%	2%	.	?	14%	1%[46.1 µM]	3%	.
CCCn1c(SCC(=O)Nc2ccc(OC)cc2)nnc1-c1ccncc1	11%	21%	5%	1%	7%	14%	-1%	-1.9%
Cc1cc(-c2ccc(S(=O)(=O)N3CCN(C)CC3)s2)on1	-14%	-4%	.	10%[46.1 µM]	-12%	-26%[46.1 µM]	-9%	.
CC(C)(C)c1ccc(C(=O)NNC(=O)c2ccc(Cl)cc2)cc1	13%	11%	-8%	-9%	7%	15%	4%	0.1%
COc1cc(C(C)=O)ccc1OCC(O)CN1CCN(c2ccccc2)CC1 (stereo not given)	-8%	2%	.	.	-1%	.	-7%	.
Cc1noc(C(=O)Nc2c(C)nn(Cc3ccccc3)c2C)c1Cl	-16%	5%	3%	.	1%	.	0%	4.7%
Cn1c(CNc2ccccc2)nc2ccccc21	24%	-2%	-4%	27%	-81%	16%	?	2.1%
Cc1ccc(C)c(Nc2nc(-c3ccccc3)c3cc(Br)ccc3n2)c1	-16%	.	?	.	.	5%[46.1 µM]	.	-0.4%
COCCCNC(=S)NCCCNc1nc2cc3c(cc2cc1C#N)OCO3	.	-7%	-5%	16%	-5%	29%	-7%	?
